TRPV1 potentiator – HTS Assay for Compounds that Act as Potentiators of the Vanilloid Receptor 1 | Transient receptor potential cation channel subfamily V member 1 (Homo sapiens), Q8NER1 | actives 0.02% (n = 320,000) | potentiation, % at 8.33 µM | TRPV1-expressing cells, Fluo-8 calcium influx, capsaicin EC20 potentiation; host cell line not named in the record; control for the full effect not named in the record; active means potentiation above 80%; inconclusive means 30% to 80%; inactive means below 30%; also: 0% is about no effect
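Cells expressing TRPV1 were dye-loaded with Fluo-8 and read kinetically: 10 s baseline, 3 min after compound (agonist portion), then 2 min after EC20 capsaicin (allosteric enhancer portion). Calcium-bound dye fluorescence at 480/520 nm.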
ClpP mod – qHTS Assay for Activators of ClpP; AID 651965, 2013; ATP-dependent Clp protease proteolytic subunit (Bacillus subtilis (strain 168)), P80244; actives 1.9% (n = 340,000); purified B. subtilis ClpP, FRET peptide cleavage, 20 min; Potency, µM (doses to about 57.5 µM), for inactives: top-dose activity change, negative = active; active = well fitted falling curve with a large enough effect; inconclusive = small, poorly fitted or top-dose-only effect; inactive = no such curve, though single readings can be large or run the other way; also: potency is read from the fitted curve at half-maximal effect; the source files actives as falling curves though it sought activators and does not explain the sign; nearly all actives have a fitted effect of over 65% in size; many hits overshoot -100%
Target sequence (P80244 whole entry, looked up): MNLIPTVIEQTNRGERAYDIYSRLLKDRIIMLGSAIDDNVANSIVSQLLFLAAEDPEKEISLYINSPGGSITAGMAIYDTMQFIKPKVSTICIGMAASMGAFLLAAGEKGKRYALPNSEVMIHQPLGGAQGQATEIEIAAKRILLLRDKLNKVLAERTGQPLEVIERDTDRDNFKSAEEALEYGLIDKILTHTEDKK
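Purified B. subtilis ClpP, 10 microg/mL final in Tris/HCl pH8 with KCl, BSA, glycerol and Tween-20, cleaved an Abz/nitrotyrosine-quenched decapeptide. Fluorescence (ex 320, em 430) was read at 0 and 20 min at room temperature. Delta was normalized to 5.8 microM ADEP and DMSO/no-enzyme controls.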
Menin MLL FP FL – qHTS Assay for Inhibitors Targeting the Menin-MLL Interaction in MLL Related Leukemias: Competition With Fluorescein Labeled MLL-derived Peptide. Fluorescence polarization, fluorescein-MLL peptide displacement from menin. FP activity change, % at 61.4 µM. 290,000 tested, under 10 active; inconclusive = falling polarisation curve, or a change in total fluorescence; inactive = total fluorescence flat and polarisation flat or rising; no compound was filed as active; the % refers to the polarisation; negative = inhibition;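 also: % of control where 0% means no effect; inhibitors lower the polarisation; unlabelled MLL peptide was the positive control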
gsp ag – qHTS for Agonist of gsp, the Etiologic Mutation Responsible for Fibrous Dysplasia/McCune-Albright Syndrome: qHTS. gsp mutant cells, cAMP HTRF, 30 min; control for the full effect not named in the record. Potency, µM (top dose mostly 76.9 µM), without a hit: top-dose activation (cAMP increase), actives largely listed as activators. actives 0.13% (n = 340,000); active = well fitted activation curve with a large enough effect; inconclusive = small, poorly fitted or top-dose-only effect, or another doubt; inactive = no such curve, though single readings can be large or run the other way; cell line not stated here;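 also: phosphodiesterase inhibitor Ro 20-1724 added with compounds to block cAMP breakdown; potency is read from the fitted curve at half-maximal effect; nearly all actives have a fitted effect of over 60% in size; about a fifth of the inactives were tested at one dose only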
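Cells in DMEM/10% FBS with G418 were pretreated with compounds in DMSO plus […] (300 uM stock) for 30 min at 37C. cAMP was measured by HTRF (cAMP-d2 plus anti-cAMP antibody-K) after 30 min at room temperature.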
gsp antag – qHTS for Antagonists of gsp, the Etiologic Mutation Responsible for Fibrous Dysplasia/McCune-Albright Syndrome: qHTS. gsp-mutant cells, cAMP HTRF, 30 min; control for the full effect not named in the record. actives 0.4% (n = 340,000). Potency, µM (top dose mostly 76.9 µM), for inactives: top-dose activity change, negative = inhibition, actives largely listed as inhibitors. AID 624288, 2012; active = falling curve of any shape with a large fitted effect; inconclusive = falling curve, mostly with a smaller effect; inactive = flat or rising curve; cell line not stated here;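 also: intracellular cAMP measured with PDE inhibitor Ro 20-1724 present during compound exposure; potency is read from the fitted curve at half-maximal effect; % is scaled to controls: 0 for no effect and ±100 for the full control effect; nearly all actives have a fitted effect of over 65% in size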
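Measurement of cellular cAMP by homogeneous time-resolved fluorescence following a 30 min compound exposure at 37C. The PDE inhibitor […] was present throughout; the assay buffer was DPBS with 0.05% BSA and 0.005% Tween 20.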
Sfp inh – qHTS Assay for Inhibitors of Bacillus subtilis Sfp phosphopantetheinyl transferase (PPTase); Biochemical Sfp PPTase activity, qHTS; Potency, µM, without a hit: max response, negative = inhibition, most hits filed as inhibitors; actives 3.5% (n = 310,000); AID 1490, 2009; active = well fitted inhibition curve with a large enough effect; inconclusive = small, poorly fitted or top-dose-only effect, or another doubt; inactive = no such curve, though single readings can be large or run the other way;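 also: the enzyme is Sfp with the accession as filed and its product quenches rhodamine fluorescence; potency is read from the fitted curve at half-maximal effect; 0% = enzyme reaction without inhibitor and -100% = no enzyme wells; top concentration of the series not given in the record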
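Fluorescence-quenching assay: 15 nM Sfp-PPTase preincubated 15 min at room temperature with compound, then 5 uM rhodamine-CoA and 12.5 uM BHQ-2-labelled YbbR peptide added. Fluorescence (ex 525/em 598 nm) read at start and after 30 min; difference gives rate.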
TRPML1 blocker – qHTS for Inhibitors of the Human Mucolipin Transient Receptor Potential 1 (TRPML1). Mucolipin-1 (Homo sapiens), Q9GZU1. TRPML1-inducible cells, Ca2+ dye fluorescence, FDSS; hits give low values; inhibition of EC80 agonist-evoked calcium signal. activity change, negative = inhibition, % (no concentration beside the values). actives 0.02% (n = 390,000). AID 624415, 2012; in the data active means activity change below about -50%; inconclusive means about -30% to -50%; inactive means above about -30%;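 also: stimulus is agonist 54-4 at its EC80 concentration; % is scaled to controls: 0 for no effect and ±100 for the full control effect; compound concentration not given in the record; the text of the record puts the active cut at -80%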
Target sequence (Q9GZU1 whole entry, looked up): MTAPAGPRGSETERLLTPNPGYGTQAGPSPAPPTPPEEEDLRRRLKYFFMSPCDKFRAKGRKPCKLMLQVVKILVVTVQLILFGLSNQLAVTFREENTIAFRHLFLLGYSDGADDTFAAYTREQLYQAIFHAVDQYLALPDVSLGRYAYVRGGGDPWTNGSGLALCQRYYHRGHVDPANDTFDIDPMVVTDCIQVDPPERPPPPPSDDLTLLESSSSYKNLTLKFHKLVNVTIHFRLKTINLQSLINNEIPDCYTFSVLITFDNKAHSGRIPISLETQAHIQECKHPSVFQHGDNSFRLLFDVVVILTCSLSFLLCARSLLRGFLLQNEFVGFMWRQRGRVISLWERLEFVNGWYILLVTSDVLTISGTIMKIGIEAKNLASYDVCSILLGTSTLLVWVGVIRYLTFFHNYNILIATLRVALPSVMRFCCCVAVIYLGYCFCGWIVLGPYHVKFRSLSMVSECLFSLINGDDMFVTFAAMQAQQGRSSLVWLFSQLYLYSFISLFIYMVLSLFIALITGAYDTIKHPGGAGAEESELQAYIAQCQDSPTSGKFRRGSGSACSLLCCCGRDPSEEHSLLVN
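Calcium fluorescence in TRPML1-DL cells induced overnight with Tet: a 110 s read after compound pin addition, then a 110 s antagonist read after challenge with 54-4 at 4 uM final (EC80).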
* hit, by the source's call; ? = inconclusive; / = not tested or not shown; & = joins results of further samples; [ ] = another dose, or the depositor's remark.

SMILES	TRPV1 potentiator	ClpP mod	Menin MLL FP FL	gsp ag	gsp antag	Sfp inh	TRPML1 blocker
C=CCN1c2ccccc2[C@]23C[C@@H](C(=O)OC)N(C(=O)OCC)C2=NC(C(=O)OC)=C(C(=O)OC)[C@H]13	/	0.4%	-3.1[11.7 µM]	10%	-2%	17%	13
CCOC(=O)Cc1csc(NC(=O)Cn2c(=O)oc3ccccc32)n1	9	/	4.9	-1%[15.4 µM]	4%	15%	-3
C=CCc1cccc(Cl)c1OCCCNC1CCCC1	-14	1.7%	0.0	-24%	1%	-25%	46
CN(Cc1ccco1)C(=O)c1c[nH]c2ccc(S(=O)(=O)Nc3ccc4c(c3)OCCO4)cc2c1=O	1	3.5µM*	-0.7	11%[15.4 µM]	3%	-13%	-1
NC(=O)COC(=O)CCCSc1nc2ccccc2s1	-26	0.1%	-5.2	-1%[15.4 µM]	-2%	13%	15
Cc1ccc(-c2nnn(CC(=O)N(Cc3ccccc3)C(C(=O)NC3CCCC3)c3ccncc3)n2)o1 (configuration not stated)	5	1.5%	6.2	5%	-16%	-28%	-16
O=C(c1ccc(Cl)c(S(=O)(=O)N2CCCCC2)c1)N1CCCC(C(F)(F)F)C1 (configuration not stated)	-19	0.1%	/	-20%	-13%	/	-4
CCCCNC(=O)CSc1nc(O)c(Cc2ccc(OC)cc2)c(=O)[nH]1	5	/	4.4	-12%[15.4 µM]	2%	19%	-14
Oc1ccc(NCc2cccs2)cc1	19	0.4%	6.0	-8%[15.4 µM]	-20%	?	5
Cc1cc(NC(=O)c2cccc(S(=O)(=O)N3CCC(C)CC3)c2)no1	0	1.3%	2.0	?	-6%	7%	1
O=C(Cc1csc(-c2cccc(Cl)c2)n1)Nc1cccc(S(=O)(=O)NC2=NCCC2)c1	18	-3.8%	/	2%	-10%	/	34
Cc1cc(=O)[nH]c(SCC(=O)NC2CCCCCCC2)n1	/	1.7%	/	16%	-1%	/	3
COc1ccc(C2C(C(=O)c3cccs3)=C(O)C(=O)N2Cc2cccnc2)cc1OC (configuration not stated)	15	/	1.5	4%[15.4 µM]	-3%	?	-17
O=C(CSC1=NCCS1)N1CCOCC1	1	-1.5%	0.4	-5%	-6%	18%	-9
Cc1ccccc1C(=O)NNC(=O)C1CC(=O)N(Cc2ccccc2)C1 (configuration not stated)	10	5.1%	/	-8%	11%	/	9
CCOC(=O)C1CCN(C(=O)Nc2ccc(Cl)cc2Cl)CC1	-2	-0.5%	1.0	3%	6%	0%	11
COc1ccc(-n2nnc3c(=O)n(Cc4cccc(C)c4)cnc32)cc1	-8	-1.8%	0.1	5%	7%	10%	19
NS(=O)(=O)c1ccc(NC(=O)c2ccc(S(=O)(=O)N3CCc4ccccc43)cc2)cc1	-14	-0.9%	/	10%	-15%	6%	-6
CCOc1ccc2nc(NCCNC(=O)C(C)(C)C)c(C)cc2c1	-1	/	-4.4	6%[15.4 µM]	9%	17%	-5
Cc1noc(C)c1COc1ccccc1C(=O)NCCOc1ccccc1	-24	1.4%	/	-10%	4%	/	38
NS(=O)(=O)c1ccc(CCNCc2cccnc2)cc1	19	0.3%	0.5	4%	5%	15%	2
COc1ccc(N2C(=O)C3CCCN3C2c2cccc(OC)c2)cc1 (configuration not stated)	/	0.7%	5.1	-31%[inhibitor]	4%	21%	-5
Cc1cccc(S(=O)Cc2ccc(C(=O)NC3CCN(Cc4ccccc4)CC3)o2)c1 (configuration not stated)	-2	1.0%	/	5%	16%	22%	-4
CCn1c(C)nc2cc(C(=O)n3cc(C(=O)c4cc(F)ccc4O)cn3)ccc21	11	/	6.9	/	/	15%	/
CSc1cccc(NS(=O)(=O)c2ccc3c(c2)CCN3C(C)=O)c1	-8	0.2%	2.1	?	?	-1%	2
COC(=O)c1ccc(CNC(=O)c2ccc(COc3ccccc3)cc2)cc1	8	-1.7%	-28	-2%	8%	3%	-16
O=[N+]([O-])c1ccc(Cl)c(/C=N/N2CCN(C3c4ccccc4-c4ccccc43)CC2)c1	23	-0.9%	0.4	-30%[inhibitor]	11%	-9%	-7
CC(=O)Nc1c(-c2ccc(C)cc2)nc2ccc(Cl)cn12	/	4.0%	/	?	/	/	5
CCC(C(=O)NC1C(=O)N2C(C(=O)O)=C(CSc3nnc(C)s3)CSC12)c1ccccc1 (configuration not stated)	9	0.3%	/	?	0%	/	4
CCOc1ccc(-c2nnc(SCC(=O)N3CCNC3=O)o2)cc1	2	-0.8%	/	?	3%	/	-4
CCN(CC)CC(=O)c1c[nH]c2ccc(OC)cc12	13	-7.9%	9.0	-9%	0%	14%	-2
COCCCNC(=O)Cn1cc(/C=C(\C#N)C(=O)N2CCN(c3ccccc3)CC2)c2ccccc21	17	-0.7%	2.8	13%	11%	?	?
CC(=O)C[C@H](O)CC(=O)[C@H]1OC(=O)[C@@H](C)C/C=C\Cc2ccccc21	/	0.1%	/	/	5%	/	-7
O=C(Cc1ccc([N+](=O)[O-])cc1)Nc1ccc(C(=O)N2CCOCC2)cc1	11	1.2%	/	/	3%	10%	-3
NC(=O)C1CNc2ccccc2O1 (configuration not stated)	1	-3.9%	1.0	-2%	-7%[15.4 µM]	3%	31
O=C(CN1CCN(c2cccc(C(F)(F)F)c2)CC1)Nc1ccc2c(c1)OCCCO2	/	0.6%	/	?	/	/	5
COC(=O)c1ccc(C2=NOC(C)(c3nnc(-c4cccc(Cl)c4)o3)C2)cc1 (configuration not stated)	/	-2.5%	/	-10%	-13%	/	1
Cc1ccc2ncnc(Oc3ncccc3NC(=O)C(C)(C)C)c2c1	6	/	-0.8	7%	4%	-4%	-11
COc1ccc(OC)c(NC(=O)Cc2nn(C)c(=O)c3ccccc23)c1	10	-0.9%	2.9	29%	?	6%	4
Cc1cc(C(=O)Nc2cccc3cccnc23)ccc1[N+](=O)[O-]	-6	3.0%	-6.3	-11%	-31%	-14%	22
COc1cc(CN2CCC(C(=O)NCC(C)(C)CN(C)C)CC2)ccc1OCc1ccccc1	6	-1.3%	-3.7	-8%	0%	-23%	/
CCOC(=O)c1[nH]c(C)c(C(=O)NCc2ccc(C)cc2)c1C	7	-14%	2.1	4%	10%	1%	6
Cc1nc(Nc2ccccc2O)c2oc3ccccc3c2n1	-18	-3.3%	-2.3	-27%	-4%	-7%	-3
NS(=O)(=O)c1ccc(NC2=CC(c3ccc([N+](=O)[O-])cc3)N(c3ccc(S(N)(=O)=O)cc3)C2=O)cc1 (configuration not stated)	-7	-0.9%	7.4	6%	-9%	11µM*	-8
CCC1(c2ccccc2)NC(=O)N(CC(=O)N(C)CC(=O)Nc2ccc(F)c(F)c2F)C1=O (configuration not stated)	-3	/	/	-6%[15.4 µM]	-11%	/	5
C=C1C(O)C[C@@H](C(C)C)N(CC(C)C)S1(=O)=O (some centres not stated)	/	0.6%	/	/	12%	/	1
CC(C)(C=O)Cc1cc(C(C)(C)C)c(O)c(C(C)(C)C)c1	-17	-0.8%	-0.3&21	/	-13%	12%	4
S=C(Nc1ccc(Br)cc1)N1CCCC1	6	1.5%	-0.9	13%	?	6%	-4
O=c1[nH]cc([N+](=O)[O-])cc1Br	6	2.2%	2.6	32%[15.4 µM]	1%	2%	-15
CCC(C)(C)n1nnnc1C(c1cc2cc(C)cc(C)c2[nH]c1=O)N1CCN(Cc2ccc3c(c2)OCO3)CC1 (configuration not stated)	11	?	0.5	-5%	-8%	63µM*	-4
CC1(C)CC(=O)C(C(=O)/C=C/NCCc2ccccc2)C(=O)C1	-2	-0.8%	-0.1	-9%	0%	7%	-1
COc1ccc(CNC(=O)c2c(C)cc(=O)oc2C)cc1OC	-6	-1.6%	-1.8	-68%[inhibitor]	0%	13%	10
O=C(CSc1nnc2scc(-c3ccc(F)cc3)n12)NCc1ccco1	4	-2.0%	-0.7	-10%	-3%	11%	-13
CC[C@]12c3[nH]c4ccc(OC)cc4c3CCN1C(=O)C(CC(=O)NCCN1CCOCC1)C[C@@H]2C(=O)N1CCN(C(=O)c2ccco2)CC1 (some centres not stated)	/	-2.3%	/	/	6%	/	-6
CCCCn1c(N)c(N(CCC(C)C)C(=O)CSc2nncn2-c2ccccc2)c(=O)[nH]c1=O	19	1.0%	/	21%	7%	/	-4
COc1ccc(N2CCN(c3ccnc4cc(Cl)ccc34)CC2)cc1	-20	/	2.4	-8%	-15%	56µM*	1
CN(CC#CC1(O)c2ccccc2-c2ccccc21)Cc1ccccc1	9	-3.4%	8.2	-2%	-17%	45µM*	12
CC(=O)Nc1cccc(-c2nc3ccccc3c(=O)o2)c1	5	-2.0%	-0.3	-33%[inhibitor]	-13%	19%	-14
Cc1cc(NC(=S)N(Cc2ccc(Br)cc2)Cc2ccc(C(=O)O)cc2)ccc1Cl	-7	/	1.1	3%[15.4 µM]	/	?	29
CCOC(=O)c1[nH]c2ccccc2c1NC(=S)Nc1cccc(C)c1	10	-28%	4.0	?	2%	-29%	15
Fc1cccc(COc2ccccc2C(=S)N2CCCC2)c1	-2	0.7%	1.4	-8%[15.4 µM]	4%	11%	-3
Cc1nnc(SCC(=O)c2ccc(C(C)C)cc2)s1	-2	-3.8%	-1.2	-8%[15.4 µM]	3%	7%	-7

Screening data as filed in PubChem.
